Screening results as filed in PubChem.
VDR inh: Inhibitors of the vitamin D receptor (VDR): qHTS; Vitamin D3 receptor (Homo sapiens), P11473; VDR-SRC2-3 peptide fluorescence polarization, 2 h; Potency, µM, without a hit: max response, negative = inhibition, most hits filed as inhibitors; actives 0.93% (n = 400,000); AID 504847, 2011; active means well fitted inhibition curve with a large enough effect; inconclusive means small, poorly fitted or top-dose-only effect, or another doubt; inactive means no such curve, though single readings can be large or run the other way; further: series mostly up to about 120 µM
Target sequence (P11473 whole entry, looked up): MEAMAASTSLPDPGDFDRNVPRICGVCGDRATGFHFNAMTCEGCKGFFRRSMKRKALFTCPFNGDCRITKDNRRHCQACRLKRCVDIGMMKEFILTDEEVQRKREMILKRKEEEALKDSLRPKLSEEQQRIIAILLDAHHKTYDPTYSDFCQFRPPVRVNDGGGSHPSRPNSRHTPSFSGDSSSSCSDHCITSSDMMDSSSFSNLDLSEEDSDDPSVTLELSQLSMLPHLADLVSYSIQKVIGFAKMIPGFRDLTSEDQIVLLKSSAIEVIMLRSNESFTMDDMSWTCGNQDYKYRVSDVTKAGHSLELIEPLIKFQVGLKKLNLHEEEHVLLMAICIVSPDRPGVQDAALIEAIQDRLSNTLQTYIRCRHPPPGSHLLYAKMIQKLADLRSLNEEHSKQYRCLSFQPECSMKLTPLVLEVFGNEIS
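The screen uses fluorescence polarization to detect compounds that interfere with recruitment of the SRC2-3 coactivator peptide to VDR; plates are read after 2 h at room temperature.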
An asterisk follows results filed as active; ? = inconclusive; [ ] = dose if it differs, or a comment. On the % scale 0 is the no-effect control and ±100 the full control effect; potency means the concentration at half of the fitted maximal effect.

VDR inh | SMILES
-7% | COc1ccc(C(C)=O)cc1COC(=O)C1CC(=O)N(Cc2ccccc2)C1 (centres undefined)
-22% | C#CCOc1ccc(-c2nnc(Nc3ccc(NC(C)=O)cc3)c3ccccc23)cc1
-9% | CN(CC(=O)Nc1ccc(Cl)c(C(F)(F)F)c1)C(=O)C1(c2ccccc2)CC1
-5% | Nc1nc(-c2ccccc2)c(CCCOc2ccc(NC(=O)CBr)cc2)c(=O)[nH]1
13% | c1cncc(-c2nnc3n2C2(CCCCC2)Cc2ccccc2-3)c1
0% | COc1ccnc2c1c(=O)n(Cc1cccc(F)c1)c(=O)n2C
1% | Nc1nonc1C(=O)NCCN=Cc1ccccc1O
-11% | COc1ccc(OCCOCCN2CCOCC2)cc1
-8% | CCOC(=O)C1CCN(C(=O)c2ccc3snnc3c2)CC1
9% | CN(C)CCn1c2c(c(SCC(=O)N3CCc4ccccc43)nc1=O)CCCC2
-20% | CCOc1ccc(NC(=O)C2CCN(S(=O)(=O)c3ccc4c(c3)CC(C)N4C(C)=O)CC2)cc1 (centres undefined)
2% | Cc1cc2c(cc1C)[n+](C)cn2CC(O)COCc1ccccc1 (centres undefined)
1% | CS(=O)(=O)Nc1cccc(-c2nc(NCCN3CCOCC3)c3ccccc3n2)c1
-3% | COc1ccc(Cl)cc1NC(=O)CSc1nc(=O)[nH]c2c1CCCC2
2% | CCN(Cc1ccccc1)C(=O)CCNS(=O)(=O)c1cc(Br)cnc1N
2% | CCOCCCNC(=S)N1CCN(c2nc(-c3ccccc3)cs2)CC1
1% | COc1ccc(CNC(=O)CSc2nc3ccc(C)cc3[nH]2)cc1OC
-13% | c1ncn(C23CC4CC(CC(C4)C2)C3)n1
-5% | CN(C)c1ccnc(Nc2ccccc2)c1C#N
-20% | COc1ccc(OC)c(CCNC(=O)CCc2nnc3ccc(N4CCOCC4)nn23)c1
-11% | O=S(=O)(NCCNc1nccc(C(F)(F)F)n1)c1ccccc1
14% | CC(C)CN(C(=O)COC(=O)c1ccc2ccccc2n1)C1CCS(=O)(=O)C1 (centres undefined)
-1% | c1ccc(-c2n[nH]c3c2CCC3)cc1
9% | COc1cccc(CNC(=O)c2ccc3oc(=O)n(Cc4ccccc4)c3c2)c1
-4% | CCN(CC)S(=O)(=O)c1ccc2oc(C(=O)N3CCOCC3)c(C)c2c1

Ordered by length of the SMILES (high to low): part of the list above
VDR inh | SMILES
-20% | CCOc1ccc(NC(=O)C2CCN(S(=O)(=O)c3ccc4c(c3)CC(C)N4C(C)=O)CC2)cc1 (centres undefined)
-9% | CN(CC(=O)Nc1ccc(Cl)c(C(F)(F)F)c1)C(=O)C1(c2ccccc2)CC1
-5% | Nc1nc(-c2ccccc2)c(CCCOc2ccc(NC(=O)CBr)cc2)c(=O)[nH]1
-22% | C#CCOc1ccc(-c2nnc(Nc3ccc(NC(C)=O)cc3)c3ccccc23)cc1
-20% | COc1ccc(OC)c(CCNC(=O)CCc2nnc3ccc(N4CCOCC4)nn23)c1
9% | CN(C)CCn1c2c(c(SCC(=O)N3CCc4ccccc43)nc1=O)CCCC2
2% | CCN(Cc1ccccc1)C(=O)CCNS(=O)(=O)c1cc(Br)cnc1N
-3% | COc1ccc(Cl)cc1NC(=O)CSc1nc(=O)[nH]c2c1CCCC2
1% | COc1ccc(CNC(=O)CSc2nc3ccc(C)cc3[nH]2)cc1OC
2% | CCOCCCNC(=S)N1CCN(c2nc(-c3ccccc3)cs2)CC1
0% | COc1ccnc2c1c(=O)n(Cc1cccc(F)c1)c(=O)n2C
-8% | CCOC(=O)C1CCN(C(=O)c2ccc3snnc3c2)CC1
-13% | c1ncn(C23CC4CC(CC(C4)C2)C3)n1
1% | Nc1nonc1C(=O)NCCN=Cc1ccccc1O
-5% | CN(C)c1ccnc(Nc2ccccc2)c1C#N
-1% | c1ccc(-c2n[nH]c3c2CCC3)cc1

Next records:
VDR inh | SMILES
-12% | COc1ccc(S(=O)(=O)N2CCC(C(=O)NCc3ccco3)CC2)cc1
6% | COc1ccc(C(=O)C(=NNc2ccccc2)c2ccc(OC)cc2)cc1
8% | O=C(CCCn1c(=S)[nH]c2ccccc2c1=O)N1CCN(c2cccc(Cl)c2)CC1
11% | Cc1ccc(CCCNC(=O)C2CCC(=O)N(Cc3cccc(F)c3)C2)cc1 (centres undefined)
1% | COc1cccc(N(C(=O)Cn2nnc(-c3ccc(C)cc3)n2)C(C(=O)NC(C)(C)C)c2c[nH]c3ccccc23)c1 (centres undefined)
17% | CCn1cc(S(=O)(=O)c2ccc(C)cc2)c(=O)c2cc(F)c(N3CCCCCC3)cc21
-7% | CCOC(=O)C(C)N1N=C(/C=C/c2ccc(OC)cc2)CCC1=O (centres undefined)
-4% | CN(c1ccc(C(=O)N/N=C/c2cccc([N+](=O)[O-])c2)cc1)S(=O)(=O)c1ccccc1
0% | O=C(Cn1cc(S(=O)(=O)Cc2ccc(F)cc2)c2ccccc21)NCc1ccccc1Cl
-17% | Cc1cc(C)c2c(n1)SCC(=O)N2CC(=O)Nc1cccc(Cl)c1
1% | Brc1ccc(-c2nnc3sc(CN4CCc5ccccc5C4)cn23)cc1
33%[activator] | CC(C)C(NC(=O)OC(C)(C)C)C(=O)N1CCCC1C(=O)NC(Cc1ccccc1)C(N)=O (centres undefined)
20% | CN(C)C=Nc1nc2ccccc2nc1N1CCCC1
14% | O=C(NCCN1CCOCC1)C1CCC(=O)N1Cc1ccc(F)cc1 (centres undefined)
21% | Cc1cc(N2CCCCC2)n2ncc(-c3ccc(Cl)cc3)c2n1
13% | CC(=O)Nc1ccc(C(=O)COC(=O)CCN2C(=O)C3CC=CCC3C2=O)cc1 (centres undefined)
6% | CCc1cc(C(=O)NCc2ccc(F)cc2)no1
-2% | C=CC[C@H](CC(=O)N(CCO)Cc1ccccc1)C(=O)N[C@H](COC(=O)[C@@H](CC=C)Cc1ccc(F)cc1)Cc1c[nH]c2ccccc12
? | Cc1noc(C)c1-c1nccc(NCc2ccccc2)n1
12% | O=C(CNC(=O)c1cccc(F)c1)OCC(=O)N1CCCCC1
-3% | O=C(Nc1ccccc1C(F)(F)F)c1noc2c1CCCCC2
17% | Cc1cc(C)n(-c2nc(C)c(C)c(=O)n2CC(=O)Nc2ccc(Cl)c(Cl)c2)n1
-11% | Clc1cccc(-c2csc(-c3nc(-c4ccc(Br)s4)cs3)n2)c1
-7% | CCOc1c2ccc(C(=O)NCc3ccco3)cc2nn1CC
6% | COc1ccccc1-c1oc2ccccc2c(=O)c1O
-6% | CC(C)n1cc(/C=C2\NC(=O)N(c3cccc(Cl)c3)C2=O)c2ccccc21
-11% | CCc1c(C)sc(NC(=O)c2cc(C3CC3)on2)c1C#N
-2% | c1ccc(-c2nnc(CN3CCN(c4ccccn4)CC3)o2)cc1
-5% | CN(C(=O)Nc1ccc(C(C)(C)C)cc1)C1CCCCC1
8% | Cc1coc2cc3oc(=O)c(CCC(=O)NCc4ccccc4Cl)c(C)c3cc12
0% | CCOC(=O)c1ccc(NC(=O)C(CC)Sc2nnc3c4ccccc4n(C)c3n2)cc1 (centres undefined)
1% | Cc1ccc(N(C(=O)c2ccccn2)C2(C(=O)NC3CCCC3)CCCCC2)cc1
-15% | CC(C)COc1ccc(C(=O)NNC(=O)CCC(=O)c2cccs2)cc1
-15% | CN(CCCNC(=O)C1CCC(=O)N1Cc1ccc(F)cc1)c1ccccc1 (centres undefined)
6% | COc1cccc(CC2(CO)CCCN(Cc3ccc(OC)c(C)c3OC)C2)c1 (centres undefined)
-4% | COc1ccc(/C=N/n2c(C)cc(C)cc2=O)cc1
1% | COc1cc2c(cc1OC)C(c1ccccc1)CN(C)CC2 (centres undefined)
21% | COC(=O)c1ccc(NC(=O)N2CCC(CN3CCc4ccccc4C3)CC2)cc1
-2% | COc1ccc(S(=O)(=O)N2CCOC2CNC(=O)C(=O)NCCCN2CCOCC2)cc1C (centres undefined)
4% | CCCCN(C(=O)c1cc2c(s1)CCC2)c1c(N)n(CC(C)C)c(=O)[nH]c1=O
11% | C/C=C(\C)C(=O)Nc1cccc(C2=NOC3(C2)C[C@H](C(N)=O)N(C(=O)CC#N)C3)c1 (some centres undefined)
2% | O=C(CSCc1ccccc1)NNC(=S)Nc1cccc(Cl)c1Cl
1% | CCOC(=O)c1c(C)c(C(=O)N2CCCCCC2)c(C)n1C
4% | CCOC(=O)c1n[nH]c2ccccc12
17% | COC(=O)c1c(C)[nH]c(C(=O)C(C)OC(=O)C2CC2C)c1C (centres undefined)
-8% | Cc1occc1C(=O)N1CCN(c2ccc(Cl)cc2)CC1
-2% | CCCCNc1oc(-c2ccc(COc3ccccc3C)o2)nc1C#N
-2% | COc1ccc(-c2ccnc3nc(N4CCOCC4)nn23)cc1
-9% | CCc1nnc(NC(=O)c2cccc(S(=O)(=O)N3CCc4ccccc43)c2)s1
-25% | Cc1nn(-c2ccccc2)c(C)c1C(=O)OCC(=O)NCc1ccco1

(further entries)
VDR inh | SMILES
25µM* | O=C(CCN1CCN(c2ccc([N+](=O)[O-])cc2)CC1)c1ccc(Cl)cc1
16% | Cc1cc(=O)n2[nH]c(NCc3c(F)cccc3Cl)nc2n1
7% | Cc1cc(C)c2c(=O)[nH]n(C3CCOC(C)(C)C3)c2n1 (centres undefined)
-3% | CN(C)C(=O)c1ccc(NC(=O)COc2cccc3c2OC(C)(C)C3)cc1
-6% | O=C(NCCc1ccccc1)NC(Cc1ccccc1)C(=O)O (centres undefined)
? | O=C(/C=C/c1ccc([N+](=O)[O-])cc1)NC1CC2CCC1C2 (centres undefined)
-2% | CC(C)(C)NC[C@H](O)COc1cccc2c1CCC(=O)N2
-4% | CSc1oc(-c2ccccc2)nc1S(=O)(=O)c1ccc(C)cc1
? | CC(=O)c1cccc(Nc2nc(-c3sc(N)nc3C)cs2)c1
-19% | COc1ccc(C2SCC(=O)N2c2nnc(C34CC5CC(CC(C5)C3)C4)s2)cc1 (centres undefined)
21% | Cn1c(SCc2ccccc2)nnc1C1CCCNC1 (centres undefined)
3% | Cc1ccc(S(=O)(=O)N2CCOCC2)cc1C(=O)NCCCn1ccnc1
4% | CCc1ccccc1NC(=O)CNC(=O)c1cc(C2CC2)nc2c1cnn2C(C)C
11% | O=c1sc(N2CCN(c3ccccc3F)CC2)nc2ccsc12
-13% | CCCN(CCC)C(=O)c1cn(C)c2ccc(S(=O)(=O)N3CCCC3)cc2c1=O
-18% | CCOC(=O)N1CCC(NC(=O)Cn2nc(Cc3ccncc3)c3ccccc3c2=O)CC1
-18% | Fc1ccc(NC(=S)Nc2cccnc2)cc1Cl
-3% | CCc1nnc(NC(=O)c2nc(SCc3cccc(C)c3)ncc2Cl)s1
13% | CCCOc1cccc(C2c3c(-c4ccccc4O)n[nH]c3C(=O)N2Cc2ccco2)c1 (centres undefined)
-1% | COc1ccc(/C=C2\SC(=S)N(CCCC(=O)Nc3ccc(O)cc3)C2=O)cc1
6% | O=C(Nc1c(S(=O)(=O)c2ccc(Cl)cc2)csc1Br)c1ccccc1Cl
10% | C=CCOc1ccccc1CNc1cccc(F)c1
10% | CCOC(=O)CSc1nc2c(sc3cccc(F)c32)c(=O)n1Cc1ccc(OC)cc1
-5% | Cc1cc(/C=C2\NC(=O)NC2=O)c(C)n1-c1cccnc1
11% | Cc1cc[n+](CC(=O)c2ccccc2)c2ccccc12
-12% | Cc1ccc(S(=O)(=O)N(C)/N=C/c2ccc(C(=O)O)cc2)cc1
-4% | CCn1c(=N)n(CC(=O)c2ccc(Br)s2)c2ccccc21
2% | Cc1cccc(Cn2cc3c(=O)n(Cc4cccc(F)c4)nc-3c3ccccc32)c1
-16% | COc1cc(/C=N/O)cc(Br)c1OC
-8% | O=C(Cc1c(F)cccc1Cl)NNC(=S)Nc1ccc(S(=O)(=O)Nc2ncccn2)cc1
3% | O=C(Cc1ccc(Cl)cc1)N/N=C/c1ccncc1
? | CC1CCc2ccccc2N1C(=O)c1cccs1 (centres undefined)
-1% | CCCCCCCCCCCCN1[C@@H](CC(=O)OC)c2cc(F)ccc2S1(=O)=O
16% | Cc1cccc(CNC(=O)CN2C(=O)CCCc3ccccc32)c1
7% | CSc1ccccc1C(=O)NCC1CCCO1 (centres undefined)
3% | CCOC(=O)c1cc(-c2ccccc2)nn1CC1CC(c2ccc(Cl)cc2)=NO1 (centres undefined)
3% | Cn1cccc1C(=O)N1CCC[C@@]2(CCN(C(=O)Nc3cccc(F)c3)C2)C1
-16% | O=C(NC1CCCCC1)C(c1ccc2ncccc2c1)N(Cc1ccc2c(c1)OCO2)C(=O)c1ccc2c(c1)OCCO2 (centres undefined)
7% | CCN(CC)c1ccc(/C=N/NC(=O)c2cnccn2)cc1
-12% | CNC(=O)Cn1ncc2c3ccccc3n(C)c2c1=O
10% | O=C(Cn1c(=O)nc(-c2ccccc2)c2ccccc21)NCc1ccc(Cl)cc1
-23% | CCn1nc(C)c(NS(=O)(=O)c2ccc(C)cc2)c1C
1% | COc1cccc(Nc2c(F)c(F)c(F)c(F)c2C(=O)O)c1
16% | O=C(Nc1ccn(Cc2ccc(F)cc2)n1)c1ccncc1
10% | CSc1ncc(C(=O)N2CCN(c3cc(Cl)ccc3C)CC2)c(C)n1
12% | CCOC(=O)c1cnc(SC)nc1Sc1cc(Cl)ccc1Cl
2% | COc1ccccc1NC(=O)c1coc(=O)c(Br)c1
? | O=S(=O)(/N=C(\Sc1ccc(Cl)cc1)c1ccccc1)c1ccccc1
-21% | O=S(=O)(NCC1CCCN(Cc2ccccc2O)C1)c1cccc2cccnc12 (centres undefined)

Only part of the results is shown; the hit share may differ from the screen's.
